AID504770: E. coli YBA685 growth inhibition, screen for V. cholerae RctB inhibitors. AID 504770. E. coli YBA685 rctB-dependent plasmid, OD600 growth, 3 h; active compounds read low. z-score (test concentration not listed). 0.27% of 130,000 active;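 active = z-score under -2 on both plates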;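 note: wells of about 30 µL received 100 nL stock; score is relative to mean and SD of the test wells; the first replicate is given; strong numbers were not always called active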
CapD inh: CapD enzyme inhibition | purified CapD enzyme, fluorescence intensity read-out; active compounds read low; some hits fall short of the stated cut | z-score (concentration not given with the values) | 0.23% of 140,000 active | AID 492967;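 active = z-score under -4 in either of two replicates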;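 note: stock transfer was 100 nL into about 40 µL; score is relative to mean and spread of the plate; one replicate is shown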
* hit, by the source's call; nt = no result given; & = joins results of further samples.

SMILES	AID504770	CapD inh
CCOc1ccc(-c2nnc(SC(F)F)n2CCC(=O)OCc2ccc(C#N)cc2)cc1	0.2	nt
CCCCOc1ccc(C2(C(=O)O)CCCC2)cc1	-0.35	nt
Cc1cc2nsnc2cc1C	nt	2.57
COC(=O)c1ccc(CSc2ccc(C(F)(F)F)cn2)o1	nt	-0.18
CN1CCC(N(C(=O)c2ccccc2Cl)C2CC2)CC1	nt	-0.455
CN1CCCN(Cc2ccccc2)CC1	2.3	-0.155
CC(=O)Nc1nc(NC(C)=O)nc(-c2ccccn2)n1	-3	-0.595
COC(=O)c1ccc(C2C(C(=O)OCC3CCCO3)=C(C)NC3=C2C(=O)CC(c2cccs2)C3)cc1 (centres undefined)	nt	2.55
Cc1cc(NS(=O)(=O)c2ccc(NC(=O)c3ccco3)cc2)no1	1.15	-0.265
CC(=O)N1CCc2cc(NS(=O)(=O)c3cccc(C(F)(F)F)c3)ccc21	nt	-0.685
COc1ccccc1NC(=O)C(C)O/N=C/c1ccccc1 (centres undefined)	-0.8	nt
NCc1ccc(Oc2ccc(F)cc2)cc1	-0.65	nt
Cc1cc2[nH]c(=O)c(=O)[nH]c2cc1S(=O)(=O)N1CCCCC1	-2.55*	28.4
Cc1sc(-c2ccccn2)nc1OC(=O)c1cccc(C(F)(F)F)c1	nt	-0.275
O=C1/C(=C\c2ccc(F)cc2)CN(Cc2ccccc2)C/C1=C\c1ccc(F)cc1	-0.4	-1.25
Nc1scc[n+]1CC(=O)Nc1ccccc1	0.45	-0.12
COc1ccc(OC)c(C2(O)CSC(=Nc3cccnc3)N2Cc2ccco2)c1 (centres undefined)	-0.25	nt
Nc1ccccc1NC(=O)c1nc2ccccc2nc1C(O)C(O)CO (centres undefined)	-0.75	-0.855
N#Cc1c(-c2ccc(Cl)cc2)cc(-c2ccc(Cl)cc2Cl)nc1N	nt	26.3
COC(=O)c1cc(S(=O)(=O)NCC2CCN(Cc3cccc(Cl)c3)CC2)c[nH]1	0.4	-1.84
COc1ccc(CCNC(=O)c2ccc3c(=O)n(Cc4ccc5c(c4)OCO5)c(=O)[nH]c3c2)cc1OC	-0.45	1.27
CCCCNC(=O)CC1SC(=NC)N(C)C1=O (centres undefined)	nt	-0.1
COc1ccc(C(NC(=O)Cc2cc3ccccc3[nH]2)C(=O)Nc2ccc3c(c2)OCCO3)cc1 (centres undefined)	nt	0.085
O=c1[nH]c(CSc2nnc3ccccn23)nc2ccccc12	-0.05	nt
CCOc1ccc(NC(=O)CSC2=C(C#N)C(c3ccc(Cl)cc3Cl)CC(=O)N2)cc1 (centres undefined)	nt	-0.315
SMILES	AID504770	CapD inh
O=C(Cn1cc(NC(=O)c2cc(-c3ccc(F)cc3)no2)cn1)NCc1ccco1	0.05	1.37
Cc1c(C(=O)Nc2ccc3ccccc3c2)oc2ccccc12	1.3	12.8
O=C1OC(c2ccc(Br)cc2)=N/C1=C\N1CCN(c2ccc([N+](=O)[O-])cc2)CC1	nt	-1.7
Cc1ccc2nc(SCC(=O)N3CCCCC3)c(C#N)cc2c1	1.05	nt
COc1ccccc1CNC(=O)C(CC(C)C)NC(N)=O (centres undefined)	1.4	nt
N#C/C(=C\c1cn(Cc2ccccc2C#N)c2ccccc12)C(=O)NCc1cccs1	0.3	nt
CC(C)N(CC(N)=O)c1nc(-c2cccs2)nc2ccccc12	-0.25	nt
CSc1ccc(CN2CCN(Cc3cccc(C)c3)CC2)cc1	-0.15	0.625
Cn1cnnc1SCc1ccc(C(=O)O)cc1	-1.05	0.175
CCCc1nc(S(=O)(=O)c2ccc(C)cc2)c(NC)o1	-0.45	-0.395
CC1(C)OC(=O)C(=Cc2ccc(C#N)cc2)C(=O)O1	-0.45	-0.015
COc1ncnc2scc(C)c12	1.25	0.305
O=c1c2c(nc3cc(-c4ccccc4)[nH]n13)CCC2	-0.25&-0.4	17.7&3.17
Cc1oc(-c2ccc(Cl)cc2)cc1C(=O)N1CCc2[nH]c3ccc(F)cc3c2C1	0.65	-0.085
COc1ccc2c(Cl)c(C(=O)N(C)C3CCN(C)CC3)sc2c1	-0.7	nt
Cc1ccc(OCCCC(=O)Nc2nccs2)cc1	0.9	0.045
CCOC(=O)N1CCC(=NNc2nc(C)cc(=O)[nH]2)CC1	-0.65	nt
O=C(CSc1ccc2nnc(-c3ccncc3)n2n1)Nc1ccccc1	-0.7	nt
COc1c(C)c2c(c(O)c1C/C=C(\C)CCC(=O)O)C(=O)OC2	0.9	-0.15&-0.615
O=C(N=c1c2c3c(sc2nc2n1CCCCC2)CCCC3)c1ccc(S(=O)(=O)N2CCOCC2)cc1	-0.8	nt
CCOc1ccc(N(Cc2cc3cc(OC)ccc3[nH]c2=O)S(C)(=O)=O)cc1	-0.3	38.8
CCNc1nc(NCC)n2c(SCC(=O)N3CC(C)OC(C)C3)nnc2n1 (centres undefined)	-0.15	nt
CCOc1cc(/C=C2/C(=O)N(c3ccccc3)C(=S)N(c3ccc(C)c(C)c3)C2=O)ccc1O	0.05	1.03
CC(C)(C)NC(=O)C12CC3CC(CC(C3)C1)C2	2.25	-1.07
O=C1Cc2cc(S(=O)(=O)NNc3ccc(C(F)(F)F)cn3)ccc2N1	-0.5	nt
SMILES	AID504770	CapD inh
Clc1ccc(-n2ncc3c(NCc4ccc5c(c4)OCO5)ncnc32)cc1	nt	-0.63
O=C(O)c1cccc(N2C(=O)/C(=C/c3ccc(-c4ccc(Cl)c(Cl)c4)o3)C=C2c2ccccc2)c1	nt	-0.915
Cc1ccccc1S(=O)(=O)Cc1ccc(C(=O)NC2CCCC2)o1	-0.95	68.6
CCOC(=O)CN1Cc2cccc(C(=O)O)c2C1=O	0.75	-0.11
O=C(c1ccc(Br)cc1)c1cc2c(cc1Br)OCCCO2	-0.7	0.885
Cc1nn(-c2ccccc2)c2sc(C(=O)OCC(=O)c3ccccc3)cc12	0.25	nt
O=C1N/C(=N/N=C/c2ccco2)SC1c1ccccc1 (centres undefined)	-0.05	nt
FC(F)(F)c1cc(/C=C/c2noc(CN3CCCC3)n2)cc(C(F)(F)F)c1	nt	-0.01
CC1CCCCC1NC(=O)CSc1nccc(=O)[nH]1 (centres undefined)	0.35	nt
CSc1nccc(-c2ccc(S(=O)(=O)N3CCCCC3)s2)n1	0.8	-0.31
CCOc1cc(C(OC(C)=O)OC(C)=O)cc(Cl)c1OC(C)=O	-0.15	0.28
CC(C)(C)C(=O)Cn1c(=O)n(CCCC(=O)NCc2ccco2)c(=O)c2sccc21	-0.05	-0.12
Cc1ccc2oc(=O)c3cc(C(=O)NCCCN4CCCCCC4)sc3c2c1	-0.4	0.76
COC(=O)c1ccc2c(=O)n(Cc3ccc(C(=O)NCCc4ccc(S(N)(=O)=O)cc4)cc3)c(=S)[nH]c2c1	nt	5.63
COC(=O)C(Cc1c[nH]c2ccccc12)NC(=O)c1c(Cl)cccc1Cl (centres undefined)	nt	0.275
CC1=C(c2ccccc2)S(=O)(=O)N=C1N1CCCC1	1.7	-0.865
CCOC(=O)/C(C#N)=C(\O)c1ccccc1	0.25	nt
N#CC1(NC(=O)CSc2nc(N)cc(N)n2)CCCC1	1.8	nt
CC1CC1C(=O)OCC(=O)Nc1ccc2[nH]c(=O)[nH]c2c1 (centres undefined)	0.45	nt
O=C(O)CSCC(=O)Nc1cccc(C(F)(F)F)c1	-0.7	nt
NC(=O)c1ccsc1NC(=O)c1ccc2c(c1)CCCC2	1.55	-0.39
CC(C)CCN1C(=O)C(O)(CC(=O)c2cccc(C(F)(F)F)c2)c2ccccc21 (centres undefined)	-1.1	-0.125
Cc1ccc(C23CC4CC(CC(C(=O)NCC(=O)O)(C4)C2)C3)cc1	-0.3	-0.15
O=C(O)CCC1CCCCCCCCCCC1	-0.65	0.46
N#Cc1c(-c2ccccc2)c(-c2ccccc2)n[nH]c1=O	0	0.875
SMILES	AID504770	CapD inh
CCSc1nc2c(c(=O)n1-c1ccccc1)SCC2	-0.05	-0.055
COc1cccc2cc(C(C)N(CCCN3CCOCC3)C(=S)Nc3cccc(Cl)c3C)oc12 (centres undefined)	0.6	0.675
Cc1cccc(C(=O)OC(C)C(=O)N2CCc3ccccc3C2)c1C (centres undefined)	-0.4	nt
CC(C)c1[nH]nc2c1C1(C(=O)N(CC(=O)O)c3ccccc31)C(C#N)=C(N)O2 (centres undefined)	nt	-0.045
COc1cccc(Cn2c(/C=C/c3ccccc3)nc3cc(C)c(C)cc32)c1	nt	33
O=C(O)c1cc(-c2cccnc2)nn1-c1cccc(C(F)(F)F)c1	-0.05	0.92
O=S(=O)(c1ccc(CN2CCOCC2)cc1)N1CCOCC1	0.75	0.56
NC1c2c(ccc3ccccc23)OCC1CO (centres undefined)	0.15	0.94
CSc1ccccc1NC(=O)c1ccc(N2CC3CC(C2)c2cccc(=O)n2C3)c(NC(=O)c2c(F)cccc2F)c1 (centres undefined)	nt	1.01
O=c1nc2ccccc2c2n1CC(CN1CCN(Cc3ccccc3)CC1)N2 (centres undefined)	nt	0.17
CC(SCc1ccco1)C(=O)O (centres undefined)	0.9	nt
Cc1c(S(=O)(=O)N2CCc3ccccc3C2CN2C(=O)c3ccccc3C2=O)sc2ccc(Cl)cc12 (centres undefined)	nt	-0.98
O=C(Nc1ccccc1N(C(=O)C1CC1)S(=O)(=O)c1cccs1)C1CC1	1.7	nt
O=C(CN1CCN(C/C=C/c2ccccc2)CC1)Nc1cccc(Cl)c1	-0.75	0.065
COc1ccc(C(=O)NC(c2ccccc2)c2ccccc2)cc1	0	0.235
O=C(N/N=C1\C2CN3CCN(C2)CC1(Cc1ccccc1)C3)c1ccc(F)cc1	0.85	-0.755
CCOCCOC(=O)C1=C(C)NC2=C(C(=O)CC(C)(C)C2)C1c1cc(Br)c(O)c(OC)c1 (centres undefined)	nt	-0.11
CCOC(=O)C(Cc1ccccc1)C(=O)N1CCN(C)CC1 (centres undefined)	-0.95	0.36
Cc1ccc(S(=O)(=O)/C=C/C#N)cc1	-4.8*	0.54
O/N=C/c1ccoc1	0	nt
Cc1ccc(O)c(C=Nc2cc(C)on2)c1	-0.25	-0.125
CCCCn1c2ccccc2c2nnc(SCc3ccccc3)nc21	-0.35	0.365
CCOC(=O)CSC(c1ccccc1)c1c(C(=O)OC)[nH]c2ccccc12 (centres undefined)	0.7	1.77
CC1Cn2c(CCc3ccccc3)nnc2S1 (centres undefined)	0.25	0.26
C=CCn1c(SCC(=O)NC2CCCCC2)nc2sc3c(c2c1=O)CCC3	nt	0.61

Random excerpt: 4 compounds from above.
SMILES	AID504770	CapD inh
O=C(Nc1ccccc1N(C(=O)C1CC1)S(=O)(=O)c1cccs1)C1CC1	1.7	nt
COC(=O)c1ccc2c(=O)n(Cc3ccc(C(=O)NCCc4ccc(S(N)(=O)=O)cc4)cc3)c(=S)[nH]c2c1	nt	5.63
Cc1c(C(=O)Nc2ccc3ccccc3c2)oc2ccccc12	1.3	12.8
CC1Cn2c(CCc3ccccc3)nnc2S1 (centres undefined)	0.25	0.26

Record cards, from the list above. Values in the order: AID504770, CapD inh
Results for Cc1c(S(=O)(=O)N2CCc3ccccc3C2CN2C(=O)c3ccccc3C2=O)sc2ccc(Cl)cc12 (centres undefined) : nt, -0.98
Results for Cc1cccc(C(=O)OC(C)C(=O)N2CCc3ccccc3C2)c1C (centres undefined) : -0.4, nt
Results for O=C(O)c1cc(-c2cccnc2)nn1-c1cccc(C(F)(F)F)c1 : -0.05, 0.92
Results for CSc1ccccc1NC(=O)c1ccc(N2CC3CC(C2)c2cccc(=O)n2C3)c(NC(=O)c2c(F)cccc2F)c1 (centres undefined) : nt, 1.01
Results for O/N=C/c1ccoc1 : 0, nt

Returning to the listing, starting 2 compounds before the break.
SMILES	AID504770	CapD inh
CC1Cn2c(CCc3ccccc3)nnc2S1 (centres undefined)	0.25	0.26
C=CCn1c(SCC(=O)NC2CCCCC2)nc2sc3c(c2c1=O)CCC3	nt	0.61
COc1cc([N+](=O)[O-])ccc1-c1ccc(/C=C2\C(=O)N(c3cccc(Br)c3)N=C2C)o1	nt	-0.22
COc1ccccc1Oc1ccc(S(N)(=O)=O)cc1	0.35	-0.48
N#C/C(=C/c1ccco1)c1ccc2ccccc2c1	0.25	0.735
Cc1ccccc1NC(=O)CC1SC(=O)NC1=O (centres undefined)	nt	0.6
CN(C)C(=O)Cc1coc2ccc3ccccc3c12	2.6	nt
CCCCCc1ccc(/C=N/NC(=O)COc2ccccc2Cl)cc1	nt	-0.995
N#Cc1ccc(S(=O)(=O)N2CCN(Cc3ccc4c(c3)OCO4)CC2)cc1	nt	-0.58
CC(=O)Nc1ccc(NC(=O)c2c(-c3c(Cl)cccc3Cl)noc2C)c(C)c1	nt	0.44
C[C@@H]1O[C@@H](OC[C@H]2O[C@@H](Oc3c(-c4ccc(O)c(O)c4)oc4cc(O)cc(O)c4c3=O)[C@H](O)[C@@H](O)[C@@H]2O)[C@H](O)[C@H](O)[C@H]1O	nt	1.44
CC(C)c1cc(C(C)C)c(S(=O)(=O)NCCCN2CCOCC2)c(C(C)C)c1	-0.6	-0.23
Cc1nn(CC(=O)Nn2c(-c3ccc(F)cc3)nc3ccccc3c2=O)c(C)c1[N+](=O)[O-]	nt	-0.78
CN1CCC(N(C)c2ncnc3ccc(Br)cc23)CC1	0.9	-0.455
Cn1cc(C(=O)N/N=C/c2ccc(Cl)cc2Cl)ccc1=O	-0.55	0.205
Cc1nc(SCC(=O)c2ccc3c(c2)CCN3S(C)(=O)=O)n(C2CCCCC2)c1C	-0.15	nt
CCOC(=O)C1=C(C)NC2=C(C(=O)C(C(=O)OCC)C(c3cccc(OC)c3)C2)C1c1ccsc1 (centres undefined)	nt	4.96
Cc1ccccc1N1C(=O)C=CC1=O	0.9	nt
COc1cc(Cl)c(C)cc1NC(=S)N(Cc1ccccc1C)CC1CCC(C(=O)O)CC1 (centres undefined)	-0.2	0.8
C=CCn1c(SCc2cccnc2)nnc1-c1ccncc1	-0.7	nt
COc1ccc(N2CC(O)(c3ccc(OC(F)F)cc3)[N+]3=C2SCCC3)cc1 (centres undefined)	nt	0.46
CS/C(NC(=O)c1ccccc1)=C1\CCCCC1=O	-0.9	-0.39

Assay outcomes: PubChem BioAssay, ICCB-Longwood Screening Facility, Harvard Medical School

A portion of the library; count on the stated rates, not on these rows.
